AF4-AF9 inh: inhibitors of human MLL-AF4/AF9 interaction; AlphaScreen, biotin-AF4 peptide binding to FLAG-AF9; inhibition, % at 10 µM; actives 0.47% (n = 350,000);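 active = every replicate reaching a set inhibition limit, whatever the replicate mean, cut at about 25% in these data; inconclusive = mean inhibition reaches that limit but some replicates miss it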;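 note: 0% = plate neutral control median and 100% = total signal loss; the record names both 10 and 1 µM as test concentration; the first replicate is given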
HNF4A DNA FP: change in binding of human HNF4 alpha to DNA; AID 1224865; actives 0.3% (n = 360,000); P41235; HNF4a-FITC DNA binding, fluorescence polarization, 1 h; activity change, % at 10 µM; in the data active = activity change above about 30%, passing the limit was not always enough;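 note: controls were the assay level and a saturating level of protein; the project sought stronger binding though the title names inhibitors; some compounds called inactive have numbers as strong as hits; positive values seem to mean higher polarization but the record does not say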
Target sequence (P41235 whole entry, looked up): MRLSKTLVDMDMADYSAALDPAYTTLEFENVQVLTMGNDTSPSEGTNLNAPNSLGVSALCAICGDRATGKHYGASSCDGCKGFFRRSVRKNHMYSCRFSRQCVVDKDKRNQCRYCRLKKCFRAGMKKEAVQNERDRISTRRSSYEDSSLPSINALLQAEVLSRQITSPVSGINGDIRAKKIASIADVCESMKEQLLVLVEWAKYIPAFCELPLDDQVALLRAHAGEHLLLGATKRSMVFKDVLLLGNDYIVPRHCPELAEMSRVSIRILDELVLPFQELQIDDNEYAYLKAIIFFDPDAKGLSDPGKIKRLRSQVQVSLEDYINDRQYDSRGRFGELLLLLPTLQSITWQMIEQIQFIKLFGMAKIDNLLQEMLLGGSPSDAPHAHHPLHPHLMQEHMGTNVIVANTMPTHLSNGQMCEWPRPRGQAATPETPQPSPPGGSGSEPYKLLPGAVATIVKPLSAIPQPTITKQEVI
UCH37 DUB inh: human UCH37 deubiquitinating enzyme inhibition; purified proteasome/UCH37, Ub-AMC cleavage fluorescence; inhibition, % (no concentration beside the values); actives 0.33% (n = 330,000); AID 588478;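 active = mean of two replicates above 20%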;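 note: 0% = compound-free wells with enzyme and 100% = wells lacking proteasome; stock transfer was 100 nL into about 20 µL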
Target sequence (Q9Y5K5 whole entry, looked up): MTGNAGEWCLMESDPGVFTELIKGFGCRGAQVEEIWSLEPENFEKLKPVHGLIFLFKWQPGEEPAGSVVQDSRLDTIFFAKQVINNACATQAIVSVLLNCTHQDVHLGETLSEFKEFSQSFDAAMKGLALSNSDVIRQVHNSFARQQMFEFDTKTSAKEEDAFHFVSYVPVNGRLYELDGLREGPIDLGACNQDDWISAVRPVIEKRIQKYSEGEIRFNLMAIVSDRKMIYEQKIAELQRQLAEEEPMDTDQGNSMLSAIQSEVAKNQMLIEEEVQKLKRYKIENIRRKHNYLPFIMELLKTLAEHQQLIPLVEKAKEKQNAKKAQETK
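system = Proteasome-associated human UCH37 deubiquitinase | amount = 0.15 nM proteasome as dispensed | medium = pH 7.4 Tris-HCl (50 mM) with ovalbumin, ATP-MgCl2, DTT | incubation = 30 min preincubation with enzyme, 25 min cleavage at room temperature | detection = AMC fluorescence 355/460 nm | read-out basis = percent inhibition | controls = no-proteasome and no-compound wells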
RanGTP-Imp inh: disruptors of Ran-importin-beta complex formation – biochemical, FRET, CFP-Ran, YFP-importin-beta, homogeneous, primary screen | cell-free CFP-Ran/YFP-importin-beta FRET ratio | inhibition, % (concentration not given with the values) | actives 1.1% (n = 300,000);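 active = most replicates above 15%; inconclusive = exactly half above 15%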;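 note: 0% = DMSO wells and 100% = Ran loaded with GDP instead of GTP; wells of about 40 µL received 100 nL stock; the first replicate is given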
FGF22 binding: FGF22 (human) thermal shift binding; calls only at 9.99 µM; AID 651658; actives 1.5% (n = 340,000); recombinant FGF22 thermal shift, SYPRO orange fluorescence; percent of sucrose octasulfate shift, DMSO zero; Q9HCT0;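 active = melting point raised past a set limit in the mean and every replicate; inconclusive = no clear call; three in four hits are not shown here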
Target sequence (Q9HCT0 whole entry, looked up): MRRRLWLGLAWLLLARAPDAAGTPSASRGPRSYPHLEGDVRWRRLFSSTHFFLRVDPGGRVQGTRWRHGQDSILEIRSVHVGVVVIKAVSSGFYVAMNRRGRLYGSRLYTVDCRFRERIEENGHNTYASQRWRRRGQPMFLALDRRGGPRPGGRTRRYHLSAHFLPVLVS
Vif TR-FRET: inhibitors of Vif binding to APOBEC3G peptide, primary screen, biochemical, TR-FRET, GST-Vif 1-94, biotin-A3G peptide, dose response retest (AID 1117319) | actives 0.57% (n = 260,000) | one-dose inhibition, %; IC50 in µM for titrated hits | TR-FRET GST-Vif / biotin-A3G peptide binding; higher % means a stronger effect; test concentration not given here; strong numbers were not always called active;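 active = above the screen mean plus three standard deviations and confirmed in dose response; inconclusive = results disagree or hit not tested in dose response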;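 note: Vif residues 1-94 fused to GST binding biotinylated APOBEC3G peptide 110-148; 0% = full assay without inhibitor and 100% = GST in place of GST-Vif; retest series ran down from 100 µM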
E coli growth: E. coli growth inhibition; Escherichia coli growth, OD600, 23 h; hits give low values; OD600 absorbance (no concentration beside the values); actives 0.21% (n = 330,000);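 active = OD600 absorbance below the run mean of sample wells minus 3.6 SD, in any replicate, cut at about 0.56 in these data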;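 note: stock transfer was 300 nL into about 60 µL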
Starred values were filed as active, the others as inactive; i = inactive; ? = inconclusive; / = no result given; & = joins results of further samples. The list is partial (hit frequency here may not be typical).

SMILES	Vif TR-FRET	FGF22 binding	HNF4A DNA FP	E coli growth	UCH37 DUB inh	AF4-AF9 inh	RanGTP-Imp inh
O=[N+]([O-])c1ccccc1Nc1ccccc1	3%	/	0.2	0.71	5.1	0.4	0.2
CCSc1ccc(-c2cccc([N+](=O)[O-])c2)nn1	-2%	i	-1.6	0.68	4.5	-7.1	5.7
O=C(c1ccc(S(=O)(=O)N2CCOCC2)cc1)N1CCN(C2=NS(=O)(=O)c3ccccc32)CC1	4%&28%	/	-2.7	0.72	0.3	/	3.6
CC(NC(=O)COC(=O)CNC(=O)c1ccc(-c2ccccc2)cc1)c1ccccc1 (centres undefined)	3%	i	1.5	0.59	1.4	-0.8	3.9
O=C(NC(Cc1c[nH]c2ccccc12)C(=O)O)c1ccco1 (centres undefined)	?	/	0.6	0.66	0.6	/	-0.6
Cn1nccc1C(=O)N1CCOCC1	0%	i	-1.6	0.66	0.4	-4.1	0.6
CCOC(=O)c1sc(/N=C/N(C)C)c(C(=O)OCC)c1C	-2%	/	2.8	/	/	/	5.4
CCOC(=O)N1CCC(N2Cc3cccc(C(=O)N4CC(C)CC(C)C4)c3C2=O)CC1 (centres undefined)	-4%	/	-1.9	0.71	3.3	/	-2.4
O=c1[nH][nH]c(-c2ccccc2O)c1C(C[N+](=O)[O-])c1ccc(Br)cc1 (centres undefined)	8%	i	2.9	0.57	-3.4	3.2	5.1
COc1ccc(OC)c(NC(=S)NCc2cccnc2)c1	-4%	i	0.8	0.64	0.8	0.6	-2.2
Cc1cc(C(=O)NC(C)C2CC2)c(Cl)cc1Cl (centres undefined)	/	i	1.9	0.67	2.3	-2.3	-13
CCc1ccc(NC(=S)N2CCCC2)cc1	/	i	-0.9	0.7	1.7	-8.9	/
OC[C@H]1O[C@@](CO)(O[C@H]2O[C@H](CO)[C@@H](O)[C@H](O)[C@H]2O)[C@@H](O[C@H]2O[C@H](CO)[C@@H](O)[C@H](O)[C@H]2O)[C@@H]1O	/	i	-5.1	/	/	-2.2	/
COc1ccccc1C(O)c1ncc(-c2ccccc2C)[nH]1 (centres undefined)	/	i	-2.2	/	/	0.8	/
Cc1cc(C(C)(C)C)cc(C)c1C[n+]1ccc2ccccc2c1	-3%	i	-2.1	0.68	4.9	0.7	-0.1
O=C(C[n+]1cc(Br)cc(Br)c1)c1ccc(-c2ccccc2)cc1	-204%	i	3.9	0.66	5.0	1.4	8.6
CC(=O)N1CCN(c2ccc(Oc3ncnc4sccc34)cc2)CC1	1%	/	2.1	0.71	3.8	/	-2.7
CCOC(=O)c1c(NC(=O)COc2ccccc2)sc2c1CC(C)(C)NC2(C)C	-2%	i	-2.7	0.63	-4.0	-0.1	-1.0
COc1cc(/C=C(/Sc2nnc(-c3ccc(F)cc3)o2)C(=O)O)ccc1OC(F)F	-1%	i	-1.0	0.68	-0.6	-3.6	4.4
CCNc1c(NS(=O)(=O)c2ccc(F)c(Cl)c2)c(=O)oc2ccccc12	/	i	2.4	0.71	-17	-0.3	-0.9
COc1ccc(OC)c(S(=O)(=O)Nc2ccc(C)c(C)c2)c1	4%	/	-1.3	0.73	-2.1	/	1.0
COC(=O)/C(=C/c1ccccc1)NC(=O)c1ccco1	4%	/	1.0	0.71	3.1	/	-1.4
CC(=O)c1cc(C)ccc1OC(=O)c1ccco1	-7%	i	-2.6	0.65	2.1	-52	-3.9
COc1ccc(C(=O)COC(=O)CCS(=O)(=O)c2ccc(C)cc2)c(OC)c1	-9%	i	0.1	0.69	-0.8	-1.1	0.6
CCC1CCCCN1CCCNC(=O)c1ccc(N2CCOCC2)c(NS(=O)(=O)c2ccc(OC)cc2)c1 (centres undefined)	-3%	i	4.2	0.65	-1.6	1.5	-2.6

3 entries already listed, sorted by count of non-hydrogen atoms, rising:
SMILES	Vif TR-FRET	FGF22 binding	HNF4A DNA FP	E coli growth	UCH37 DUB inh	AF4-AF9 inh	RanGTP-Imp inh
O=[N+]([O-])c1ccccc1Nc1ccccc1	3%	/	0.2	0.71	5.1	0.4	0.2
COC(=O)/C(=C/c1ccccc1)NC(=O)c1ccco1	4%	/	1.0	0.71	3.1	/	-1.4
COc1ccc(C(=O)COC(=O)CCS(=O)(=O)c2ccc(C)cc2)c(OC)c1	-9%	i	0.1	0.69	-0.8	-1.1	0.6

More records
SMILES	Vif TR-FRET	FGF22 binding	HNF4A DNA FP	E coli growth	UCH37 DUB inh	AF4-AF9 inh	RanGTP-Imp inh
CCCCOC(=O)NC1CCS(=O)(=O)C1 (centres undefined)	-1%	/	4.6	0.7	0.5	/	4.5
CCCc1cc(C(=O)Nc2sc(C(C)=O)c(C)c2C(=O)OCC)no1	9%	i	-3.7	0.73	-10	6.2	?
CCCCn1c(SCc2ccccn2)nc2c1c(=O)n(C)c(=O)n2C	9%	/	5.1	0.76	3.8	/	1.7
CC(C)Cc1nc2oc3c(=O)[nH]cnc3c2c2c1CCC2	17%	/	0.8	0.65	-2.3	/	6.3
Cc1snc(SCc2ccc(Cl)cc2)c1C#N	/	i	4.8	0.66	0.7	-0.8	0.1
COc1ccc(NS(=O)(=O)c2cccc3nonc23)c(OC)c1	0%	i	0.2	0.69	1.3	5.8	?
Cc1cc(C(=O)N/N=C/c2ccccc2)c(C)o1	?	i	6.1	/	/	0.6	1.2
CCOC(=O)c1cc(S(=O)(=O)NCCc2ccccc2)cn1C	/	i	-2.0	0.63	1.9	-2.8	4.7
CN1CCN(C(=O)C2=C[C@H](c3ccc(C(F)(F)F)cc3)C[C@H](OCc3ccc(CO)cc3)O2)CC1	/	i	1.0	/	2.5	1.4&2.2	1.8
CC1CCC(=NO)C(=NO)C1 (centres undefined)	0%	i	0.2	0.69	-0.2	-3.2	/
CC(C)(C)CC(C)(C)NC(=O)c1ccc2snnc2c1	20%	i	5.1	0.68	0.1	4.9	2.8
COc1ccc(N(C)S(=O)(=O)c2ccc(C)cc2)c([N+](=O)[O-])c1	?	i	1.0	0.69	2.3	3.5	-1.3
O=C(/C=C/c1ccc(Cl)cc1)NCCN1CCOCC1	33%	/	2.9	0.69	6.8	/	13
COc1ccc(-c2[nH]c(-c3ccc(SC)cc3)nc2SCC(=O)Nc2nccs2)cc1	?	i	17	/	/	2.7	0.0
Cc1n[nH]c(C)c1S(=O)(=O)N1CCN(c2ccccn2)CC1	7%	/	0.0	0.71	5.2	/	0.0
CCC(C)C(=O)Nc1nnc(SCC(=O)N2C(C)CCCC2C)s1 (centres undefined)	/	i	-2.1	0.7	0.0	-0.8	0.6
O=[N+]([O-])c1ccc2nc(NS(=O)(=O)c3ccc(F)cc3)sc2c1	/	i	-0.1	0.66	11	2.3	-0.2
Cn1c(=O)c2ccccc2n2c(=S)[nH]nc12	/	i	-0.4	0.68	5.8	-9.6	3.0
Cc1cc(Cn2nc(-c3ccccc3)cc2C(=O)NCC2CC2)on1	/	i	4.7	0.67	0.9	-4.1	3.7
CCN(CC)CCNC(=O)CCc1nnc2ccc(N3CCC(C)CC3)nn12	-5%	i	0.8	0.63	4.6	-2.2	0.0
CCC1CN2CCc3cc(OC)c(OC)cc3C2CC1CC1c2cc(OC)c(OC)cc2CCN1C(=O)C(Cc1c[nH]c2ccccc12)NC(=O)OC(C)(C)C (centres undefined)	1%	i	1.4	/	/	4.4	/
CCCn1c(C)cc(C(=O)CN2C(=O)c3ccccc3C2=O)c1C	/	i	1.6	0.7	-1.3	-2.3	1.3
COc1ccccc1CNC(=S)NCc1ccc(F)cc1	/	i	5.2	0.7	-1.2	-0.4	?
C/C=C(/C)C(=O)O[C@@H]1[C@H](OC(C)=O)c2c(ccc3ccc(=O)oc23)OC1(C)C	/	i	-1.0	/	-4.5	-7.3	-1.2
CCOC(=O)C1=CCC(c2ccc(F)cc2)N(S(=O)(=O)c2ccc(C)cc2)C1 (centres undefined)	/	i	0.1	/	/	-2.6	/

(continued)
SMILES	Vif TR-FRET	FGF22 binding	HNF4A DNA FP	E coli growth	UCH37 DUB inh	AF4-AF9 inh	RanGTP-Imp inh
O=C(OCC(=O)N1CCCCC1)c1c[nH]c(=O)[nH]c1=O	-7%	/	-1.1	0.74	2.2	/	2.3
O=C(O/N=C(/c1ccccc1)c1ccncc1)c1ccc(F)cc1	2%	/	1.0	/	/	1.3	-0.4
Cc1cc(F)ccc1NC(=O)c1cc(S(=O)(=O)N2CCc3ccccc32)cn1C	/	i	4.0	0.74	4.7	3.6	2.3
Cc1ccc(NC(=O)CSc2nnc(-c3cc(C)[nH]n3)n2N)cc1	/	i	0.3	0.66	4.0	-1.2	-2.8
COCCOC(=O)c1c(C)n(C)c2ccc(OC(=O)C3CC3)cc12	-2%	/	0.8	0.71	2.5	/	1.5
Cc1nc(SCC(=O)Nc2ccc3c(c2)OCO3)c(C#N)c2c1CCCC2	16%	/	-1.4	0.71	0.8	/	-0.8
C=CCn1c(C(O)c2ccccc2)nc2ccccc21 (centres undefined)	/	i	1.5	0.64	1.3	-2.0	-0.1
COc1ccc(CCNc2nnc(C)c(=O)[nH]2)cc1OC	11%	/	-2.5	0.65	3.1	/	-0.5
Cc1ccc(C(=O)Nc2ncc(Cc3ccc(F)cc3)s2)o1	22%	/	-4.4	0.73	-0.7	/	28*
O=C(NCCOc1ccccc1Cl)C(=O)c1c[nH]c2ccccc12	0%	/	0.8	0.68	2.3	-1.6	-2.7
Cc1cccc(NC(=O)N2CCCC(CNC(=O)c3ccccc3Cl)C2)c1C (centres undefined)	/	i	0.2	0.68	-1.8	-2.2	-1.1
CCc1cccc(NC(=O)Cn2c(-c3ccccc3)cc(C(C)=O)c2C)c1	-15%	/	-1.9	0.73	5.5	/	-0.5
Cn1c(=O)c2c(nc(NC(Cc3ccccc3)C(=O)O)n2Cc2ccccc2)n(C)c1=O (centres undefined)	3%	/	-5.3	0.7	9.9	/	1.0
C[N+](=O)C1C(=O)Nc2ccccc21 (centres undefined)	/	i	-1.6	/	/	-2.9	/
CCOC(=O)C(/C(C)=N/NC(=O)c1ccccc1[N+](=O)[O-])C(C)C (centres undefined)	17%	/	2.5	/	/	/	0.5
O=S(=O)(Nc1cccc(-c2cn3c(n2)SCC3)c1)c1ccccc1	1%	i	-3.5	0.69	-0.5	4.6	-1.2
Cc1ccc(-n2c(SCC(=O)OC(C)C)nnc2-c2ccco2)cc1	0%	/	-0.9	0.66	-0.8	/	3.8
CN1C2CCC1CC(NC(=O)c1ccc([N+](=O)[O-])cc1)C2 (centres undefined)	-7%	i	7.1	0.73	1.5	3.0	-1.3
CC(NC(=O)C1CCN(S(=O)(=O)c2cccc3cccnc23)CC1)c1ccccc1 (centres undefined)	-3%	i	-1.1	0.71	3.9	0.3	2.2
O=C(CC(c1ccccc1)c1ccccc1O)NCCN1CCOCC1 (centres undefined)	0%	/	-1.4	0.7	5.2	/	1.8
Cc1cc([N+](=O)[O-])ccc1NC(=O)CSc1nccc(=O)[nH]1	14%	i	5.3	0.67	5.2	-3.6	1.0
COc1ccc(C(=O)/C=C/c2ccc(N(C)C)cc2)c(OC)c1	-3%	i	125	0.62	-7.8	1.3	-1.2
O=C(Nc1ccc2c(c1)CCCN2C(=O)c1cccs1)c1c(F)cccc1F	/	i	-0.9	0.62	1.4	2.1	1.0
CN(c1ccccc1C(=O)Nc1ccc(S(=O)(=O)N2CCOCC2)cc1)S(=O)(=O)c1ccccc1	-5%	/	2.4	0.74	-1.3	/	0.3
Cc1ccc(CNS(=O)(=O)c2ccc3c(c2)C(C)(C)C(=O)N3C)cc1	-2%	i	-1.6	0.75	4.8	0.9	-6.6
